FGF22 binding = FGF22 (human) thermal shift binding; Q9HCT0; recombinant FGF22 thermal shift, SYPRO orange fluorescence; percent of sucrose octasulfate shift, DMSO zero; calls only at 9.99 µM; actives 1.5% (n = 340,000); AID 651658;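 active means melting point raised past a set limit in the mean and every replicate; inconclusive means no clear call; three in four hits are not shown here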
Target sequence (Q9HCT0 whole entry, looked up): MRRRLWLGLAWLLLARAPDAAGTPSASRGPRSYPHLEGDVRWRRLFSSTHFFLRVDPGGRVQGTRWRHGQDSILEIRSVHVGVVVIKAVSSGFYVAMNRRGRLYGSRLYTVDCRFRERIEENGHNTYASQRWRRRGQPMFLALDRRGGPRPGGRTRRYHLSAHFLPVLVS
Vif TR-FRET = inhibitors of Vif binding to APOBEC3G peptide, primary screen, biochemical, TR-FRET, GST-Vif 1-94, biotin-A3G peptide, dose response retest (AID 1117319) | actives 0.57% (n = 260,000) | one-dose inhibition, %; IC50 in µM for titrated hits | TR-FRET GST-Vif / biotin-A3G peptide binding; higher % means a stronger effect; test concentration not given here; strong numbers were not always called active;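 active means above the screen mean plus three standard deviations and confirmed in dose response; inconclusive means results disagree or hit not tested in dose response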;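 further: Vif residues 1-94 fused to GST binding biotinylated APOBEC3G peptide 110-148; 0% = full assay without inhibitor and 100% = GST in place of GST-Vif; retest series ran down from 100 µM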
HNF4A DNA FP = change in binding of human HNF4 alpha to DNA | actives 0.3% (n = 360,000) | AID 1224865 | P41235 | activity change, % at 10 µM | HNF4a-FITC DNA binding, fluorescence polarization, 1 h; in the data active means activity change above about 30%, passing the limit was not always enough;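 further: controls were the assay level and a saturating level of protein; the project sought stronger binding though the title names inhibitors; some compounds called inactive have numbers as strong as hits; positive values seem to mean higher polarization but the record does not say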
Ecoli rRNA inh = inhibits bacterial ribosomal RNA function over humanized ribosomes | actives 1.6% (n = 350,000) | E. coli WT GFP vs humanized-ribosome RFP mutants, fluorescence, 24 h; active compounds read low; DMSO median 0, no signal -100 | AID 720706 | GFP signal change (wild-type ribosome), % (no concentration beside the values);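 active means significant combined selectivity score with lowered wild-type GFP, culture density cut under 30%, mutant RFP and density less affected; inactive means any of these conditions unmet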; further: one replicate is shown; some compounds called inactive have numbers as strong as hits
E coli growth = blocks Escherichia coli growth; OD600 absorbance (concentration not given with the values); OD600, 23 h; active compounds read low; actives 0.21% (n = 330,000);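 active means OD600 absorbance below the run mean of sample wells minus 3.6 SD, in any replicate, cut at about 0.56 in these data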;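 further: stock transfer was 300 nL into about 60 µL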
ALR H2O2 inh = blocks human ALR sulfhydryl oxidase activity; P55789; purified ALR, DTT oxidation, H2O2 HRP-luminol luminescence; inhibition, % (test concentration not listed); actives 3.8% (n = 290,000);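 active means mean and each replicate at 75% or more; inconclusive means only one of the two met; inactive means neither met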;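 further: stock transfer was 7.5 nL into about 7.5 µL; 0% = neutral wells and 100% = wells with inactivated enzyme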
Target sequence (P55789 whole entry, looked up): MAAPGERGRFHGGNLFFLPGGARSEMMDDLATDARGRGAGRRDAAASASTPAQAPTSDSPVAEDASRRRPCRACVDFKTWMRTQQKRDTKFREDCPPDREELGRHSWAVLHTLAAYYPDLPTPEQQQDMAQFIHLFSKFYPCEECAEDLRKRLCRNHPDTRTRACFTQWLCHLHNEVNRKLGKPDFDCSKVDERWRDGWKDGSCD
AF4-AF9 inh = inhibitors of human MLL-AF4/AF9 interaction. AlphaScreen, biotin-AF4 peptide binding to FLAG-AF9. AID 651704. actives 0.47% (n = 350,000). inhibition, % at 10 µM. P42568;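 active means every replicate reaching a set inhibition limit, whatever the replicate mean, cut at about 25% in these data; inconclusive means mean inhibition reaches that limit but some replicates miss it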;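 further: 0% = plate neutral control median and 100% = total signal loss; the record names both 10 and 1 µM as test concentration; the first replicate is given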
Target sequence (P42568 whole entry, looked up): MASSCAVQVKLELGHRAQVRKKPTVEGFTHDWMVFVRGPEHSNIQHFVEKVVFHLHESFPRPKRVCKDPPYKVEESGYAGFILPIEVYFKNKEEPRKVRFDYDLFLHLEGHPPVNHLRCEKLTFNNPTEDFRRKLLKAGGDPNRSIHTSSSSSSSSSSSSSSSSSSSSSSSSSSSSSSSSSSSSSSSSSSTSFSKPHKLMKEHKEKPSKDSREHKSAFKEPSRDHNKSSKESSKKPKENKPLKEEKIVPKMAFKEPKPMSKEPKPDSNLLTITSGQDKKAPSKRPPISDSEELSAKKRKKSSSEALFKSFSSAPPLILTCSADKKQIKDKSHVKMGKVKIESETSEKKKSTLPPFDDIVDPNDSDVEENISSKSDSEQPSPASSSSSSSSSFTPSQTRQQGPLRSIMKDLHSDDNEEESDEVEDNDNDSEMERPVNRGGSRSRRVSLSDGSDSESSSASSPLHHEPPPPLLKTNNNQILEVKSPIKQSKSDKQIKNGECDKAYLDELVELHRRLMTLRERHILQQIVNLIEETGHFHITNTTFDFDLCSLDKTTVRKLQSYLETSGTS
Ecoli rRNA inh OD600 = also measured in Ecoli rRNA inh; calls as there; OD600 change, %; measured here: OD600 growth;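 optical density of the mix in the first replicate; 0 = DMSO median and -100 = no signal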
Ecoli rRNA inh RFP = recorded beside Ecoli rRNA inh, whose call it bears; RFP signal change, %; measured here: RFP humanized mutant strains;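 first replicate; 0 = DMSO median and -100 = no signal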
Starred values were filed as active, the others as inactive; i = inactive; ? = inconclusive; · = not tested or not shown. A portion of the library; count on the stated rates, not on these rows.

SMILES	FGF22 binding	Vif TR-FRET	HNF4A DNA FP	Ecoli rRNA inh	Ecoli rRNA inh OD600	Ecoli rRNA inh RFP	E coli growth	ALR H2O2 inh	AF4-AF9 inh
Cc1cc(OCC(=O)N2CCC(C(N)=O)CC2)c2c(C)cc(=O)oc2c1	i	·	-2.2	·	·	·	0.71	-7	0.0
O=C(Nc1cccc(NC(=O)c2ccc(Br)o2)c1)c1ccccc1	i	4%	1.3	-11	-28	0.0	0.65	·	0.7
CO[C@@H]1CN(C)C(=O)c2ccc(NC(C)=O)cc2OC[C@H](C)N(C(=O)C2CCCCC2)C[C@H]1C	i	·	·	0	2	-1.0	·	·	1.7
COc1ccccc1NC(=O)c1c(N=Cc2c(O)ccc3ccccc23)cnn1C	i	0%	1.7	14	8	2.3	0.71	-24	?
COc1ccc(CCNC(=O)c2c([S-])n(-c3ccc(C)cc3)c3cccc[n+]23)cc1	i	-5%	7.7	6	7	3.5	0.74	-7	-0.6
Cc1cc(OCC(=O)NC(C)(C)C)ccc1Cl	i	1%	-3.6	7	2	-2.9	0.73	-7	-3.6
COc1ccc(NC(=O)C2C3C=CC4(O3)C2C(=O)N(CCN2CCCCC2)C4C(=O)NC2CCCC(C)C2C)cc1 (centres undefined)	i	·	-0.1	7	5	0.4	0.62	-4	3.4
COc1cc(/C=C2\SC(=S)N(Nc3ncc(C(F)(F)F)cc3Cl)C2=O)cc(OC)c1OC	·	8%	4.4	·	·	·	0.75	-2	·
C[C@H](CO)N1C[C@H](C)[C@H](CN(C)S(=O)(=O)c2ccc(Cl)cc2)Oc2ccc(NC(=O)Cc3ccccc3)cc2CC1=O	i	·	·	-2	-10	14	·	·	0.8
CCOC(=O)/C(C#N)=C/c1cc2ccc(C)cc2nc1Cl	i	9%	-1.6	·	·	·	0.67	96*	3.8
COc1ccc(C(=O)Nc2cccc(OC(=O)c3ccc(C)c(C)c3)c2)cc1	·	0%	6.4	·	·	·	0.73	2	·
O=C(Nc1ccc2c(c1)[C@H]1C[C@H](CC(=O)N3CCOCC3)O[C@H](CO)[C@H]1O2)NC1CCCCC1	i	·	·	0	6	-3.1	·	·	-0.7
CCCCN1CC(COc2ccccc2)Oc2cccc(F)c2S1(=O)=O (centres undefined)	i	·	4.6	1	15	0.7	·	·	-10
Cc1cccc(-c2nc(CN3CCCC(C(=O)NC4CCCCC4)C3)c(C)o2)c1 (centres undefined)	·	27%	1.6	·	·	·	0.7	-5	·
Cc1nc(SCC(=O)NC2CCCC2)[nH]c(=O)c1C	i	·	2.7	8	13	-2.5	0.69	·	0.6

Records listed so far marked active in ALR H2O2 inh:
SMILES	FGF22 binding	Vif TR-FRET	HNF4A DNA FP	Ecoli rRNA inh	Ecoli rRNA inh OD600	Ecoli rRNA inh RFP	E coli growth	ALR H2O2 inh	AF4-AF9 inh
CCOC(=O)/C(C#N)=C/c1cc2ccc(C)cc2nc1Cl	i	9%	-1.6	·	·	·	0.67	96*	3.8

Next entries follow.
SMILES	FGF22 binding	Vif TR-FRET	HNF4A DNA FP	Ecoli rRNA inh	Ecoli rRNA inh OD600	Ecoli rRNA inh RFP	E coli growth	ALR H2O2 inh	AF4-AF9 inh
CCS(=O)(=O)N1CCC(C(=O)N2CCN(c3ccccc3)CC2)CC1	·	-2%	-1.2	·	·	·	0.68	36	·
O=c1c(Cc2c(F)cccc2Cl)c(O)ccn1Cc1ccc(F)cc1	i	5%	4.5	-6	-20	5.5	0.71	3	0.2
Cc1nc(CSc2n[nH]c(=O)n2-c2ccccc2)cs1	i	-2%	-1.0	5	4	-0.3	0.7	-8	-1.7
Cc1cc(OCC(=O)Nc2ccc(S(=O)(=O)N3CCN(C)CC3)cc2)ccc1Cl	·	2%	-1.4	·	·	·	0.68	-5	·
COc1cccc(/C=N/NC(=O)CNC(=O)c2cccnc2)c1O	i	·	-5.9	3	10	3.1	·	92*	-1.7
CCOc1cc(Br)cc(/C=N/NC(=O)c2cccnc2)c1O	i	-26%	6.7	-14	-6	-4.8	·	74	1.1
CC(=O)Nc1cccc(OCCCNS(=O)(=O)c2ccc(C#N)cc2)c1	i	·	-1.8	1	-6	0.7	0.67	-1	-3.6
O=C(CNS(=O)(=O)c1ccc2c(c1)OCCCO2)N1CCN(c2ccc(F)cc2)CC1	i	·	-0.2	8	8	3.4	0.63	4	-1.1
CC(C)C(=O)n1nc(-c2cccnc2)nc1NCc1cccs1	i	0%	4.4	-7	-2	0.8	0.7	97*	0.7
Cc1[nH][nH]c(=O)c1N=Nc1ccc(F)cc1	i	-4%	-3.4	6	2	-1.7	0.65	·	1.4
CCn1c(=O)c(C(=O)NCCCO)c(O)c2ccccc21	·	-7%	-0.1	·	·	·	·	-11	·
CC(=O)N1CCN(c2ccccc2NC(=O)c2cccc3c(Cl)cccc23)CC1	i	-5%	-0.5	-1	3	2.4	0.66	-4	4.3
O=C(/C=C/c1cccs1)N1CCCCC1	i	·	1.6	5	2	-1.1	0.7	8	-0.7
COc1ccc(C(=O)N2CCC(C)(C(=O)O)C2)cc1OC (centres undefined)	i	·	1.3	5	4	4.4	·	·	0.3
COc1ccc(NC(=O)c2cc(S(=O)(=O)N3CCCC3)c[nH]2)cc1	i	·	-1.2	-6	5	-0.7	0.74	6	0.6
OC[C@@H]1[C@H](c2ccc(-c3cccc(F)c3)cc2)[C@@H]2CN(Cc3cncnc3)CCCCN12	i	·	·	-1	14	5.7	·	·	-5.7
CCc1nnc(NC(=S)Nc2ccccc2)s1	i	-4%	2.4	-1	2	0.0	0.68	-3	2.0
O=C(NN1C(=O)C2C(c3ccccc3)C=CC(c3ccccc3)C2C1=O)c1cccc(Br)c1 (centres undefined)	i	·	4.3	-8	-4	-2.7	0.71	-3	-11
CCCCOc1ccc(S(=O)(=O)NCc2csc(C)n2)cc1	·	0%	-0.1	·	·	·	0.71	-1	·
COc1cc([N+](=O)[O-])ccc1NC(=O)C[n+]1ccccc1	·	?	1.0	·	·	·	0.66	-3	·
Cc1cc(C(=O)NC(CC(C)C)C(=O)O)cc(C)c1[N+](=O)[O-] (centres undefined)	i	-4%	0.3	6	2	1.8	0.66	-1	-5.1
COc1ccc(CNC(=O)c2ccc(-c3c(C)noc3C)c3ccoc23)cc1OC	i	·	-3.4	-2	-11	0.0	·	·	2.0
COc1ccc(N2CCN(C(=O)c3ccc(S(=O)(=O)NCc4ccco4)cc3)CC2)cc1	i	-1%	0.8	-9	-12	1.9	0.61	·	1.5
CC(=O)Nc1ccc(N2CCCC(C)C2)c([N+](=O)[O-])c1 (centres undefined)	i	3%	5.5	-25	-30	-10	0.68	5	8.3
Cc1ccccc1N(CC(=O)NCC1CCCO1)C(=O)CNS(=O)(=O)c1ccc(F)cc1 (centres undefined)	i	·	9.3	8	7	-0.4	0.64	·	-0.1
C/C=C/c1ccc([C@@H]2[C@@H](CO)N[C@@H]2CN(CC)C(=O)CN2CCOCC2)cc1	i	·	·	1	5	-0.6	·	·	0.2
Cc1ccc(C(=O)Nc2cc(C(F)(F)F)ccc2N2CCCCC2)cc1[N+](=O)[O-]	·	-1%	-2.5	·	·	·	0.71	-1	·
OCc1nnc2c3ccccc3c(-c3ccccc3)nn12	i	-3%	2.4	9	6	7.2	0.68	1	4.0
CCOC(=O)[C@@H]1[C@H]2COc3cc(OC)ccc3[C@@H]2N2C(=O)N(c3ccc(Cl)cc3)C(=O)[C@]12C	i	·	3.5	2	-1	-1.0	·	2	-2.2
O=C(CN1CCSC1=O)N1CCN(S(=O)(=O)c2ccccc2)CC1	i	-5%	3.2	12	9	1.5	0.66	0	-2.1
O=c1c(O)c(-c2ccc(O)c(O)c2)oc2cc(O)cc(O)c12	i	·	-6.7	·	·	·	0.6	99*	2.8
S=C(Nc1ccccc1)N1CCn2c(nc3ccccc32)C1	i	0%	0.9	-3	1	-1.7	0.64	3	-3.2
COc1ccc(C2=CC(=O)CC(C)(C)C2)cc1	i	·	-0.3	-16	-22	-5.1	0.63	-2	-5.7
COc1cccc(-n2nnnc2SCC(=O)NCCc2ccc(OC)c(OC)c2)c1	i	-2%	1.8	4	9	3.0	0.69	-22	1.6
COc1cc(-n2c(-c3ccccc3)n[nH]c2=S)c(OC)cc1Cl	i	1%	-1.5	6	-2	2.9	0.68	79*	-3.4
CN1OC[C@@H]2CN[C@H](c3ccc(-c4ccc(C#N)cc4)cc3)C[C@@H]21	i	·	3.8	0	0	0.5	·	·	0.3
COCC1CCCN(Cc2cn[nH]c2-c2cc3ccccc3o2)C1 (centres undefined)	i	10%	-0.8	18	17	-2.0	0.68	-1	1.8
C[C@H]1CN([C@@H](C)CO)C(=O)c2cc(NS(=O)(=O)c3ccccc3)ccc2O[C@H]1CN(C)Cc1ccc(Cl)c(Cl)c1	i	·	·	-4	-30	22	·	·	5.3
CC(C)(C)NC(=O)CSc1nnc(C2CC2)n1Cc1ccccc1	·	?	1.6	·	·	·	0.72	-21	·
COc1ccccc1CNc1nc(Nc2cccc(-c3cnco3)c2)c2sccc2n1	i	·	0.1	-24	-32	-6.5	·	·	-1.7
Cc1ccc(S(=O)(=O)Nc2ccc(S(=O)(=O)Nc3nccs3)cc2)cc1C	·	-4%	2.3	-8	-20	-0.9	0.72	·	-1.7
NC(=O)c1nc(C2CCCCC2)nc2c1[nH]c(=O)n2-c1ccc(F)cc1	i	-4%	-0.5	0	5	14	0.77	-3	-1.8
CCN(C(=O)CSc1ncccc1C(=O)Oc1cccc([N+](=O)[O-])c1)c1cccc(C)c1	i	5%	-0.4	·	·	·	0.75	2	0.3
CCOc1ccc2[nH]c(=S)sc2c1	i	·	2.1	10	21	3.5	·	·	1.3
C/C(=N\NC(=O)C1CCCC1)c1ccc(Cl)cc1Cl	i	·	-0.4	3	10	-4.1	·	-13	0.0

Arranged by molecular weight (smallest number first): three of the compounds above
SMILES	FGF22 binding	Vif TR-FRET	HNF4A DNA FP	Ecoli rRNA inh	Ecoli rRNA inh OD600	Ecoli rRNA inh RFP	E coli growth	ALR H2O2 inh	AF4-AF9 inh
CCOc1ccc2[nH]c(=S)sc2c1	i	·	2.1	10	21	3.5	·	·	1.3
COCC1CCCN(Cc2cn[nH]c2-c2cc3ccccc3o2)C1 (centres undefined)	i	10%	-0.8	18	17	-2.0	0.68	-1	1.8
COc1cccc(-n2nnnc2SCC(=O)NCCc2ccc(OC)c(OC)c2)c1	i	-2%	1.8	4	9	3.0	0.69	-22	1.6

(cont.)
SMILES	FGF22 binding	Vif TR-FRET	HNF4A DNA FP	Ecoli rRNA inh	Ecoli rRNA inh OD600	Ecoli rRNA inh RFP	E coli growth	ALR H2O2 inh	AF4-AF9 inh
O=C(CCCn1c(=S)[nH]c2ccccc2c1=O)NC1CCCC1	·	1%	3.8	·	·	·	0.68	7	·
CNC[C@@H]1Oc2ccc(NC(=O)Nc3ccc(F)cc3)cc2CC(=O)N([C@@H](C)CO)C[C@@H]1C	i	·	·	6	4	-0.8	·	·	-4.1
C/C=C/c1ccc([C@H]2[C@@H](CO)N(CCC(F)(F)F)C23CN(C(=O)CC2CC2)C3)cc1	i	·	·	-5	-13	1.1	·	·	4.5
C[C@@H]1CN([C@@H](C)CO)C(=O)Cc2cc(NC(=O)C3CC3)ccc2O[C@@H]1CN(C)Cc1ccc(C(=O)O)cc1	i	·	·	4	15	-1.0	·	·	-6.6
COCCNC(=O)C1(C)CCCN(Cc2cc(C(F)(F)F)ccc2Cl)C1 (centres undefined)	i	·	-0.9	1	7	-0.1	·	·	-1.4
Cc1[nH]c2ccccc2c1SCCN	i	·	1.0	-1	-2	6.7	0.8	10	13
CC(C)(C)c1ccc(C(=O)c2c[nH]c(C(=O)O)c2)cc1	i	-1%	0.5	3	-13	-2.7	0.68	-4	-0.6
